High-throughput results (PubChem BioAssay)
Yeast UUG start = yeast start codon fidelity modulation; S. cerevisiae UUG-firefly luciferase reporter, luminescence/redox ratio; activity score, % at 18.7 µM; actives 0.13% (n = 350,000); AID 602363;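 active = replicate mean at a twofold rise or more, about +100% in these data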;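 note: firefly luciferase made from a UUG start codon reports start codon fidelity; reporter light over untreated wells divided by growth signal over untreated wells; some hits fall short of that in this replicate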
eIF4H inh = inhibitors of RNA binding by human eIF4H; eIF4H fluorescence polarization binding assay; AID 2012; inhibition, % at 35 µM; actives 0.94% (n = 290,000); Q15056;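 active = 50% or more with normal probe brightness, or confirmed in later tests; inconclusive = above 50% with abnormal brightness, or retests that disagree; inactive = below 50% or failed in later tests; about a fifth of its hits are not listed in these tables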;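 note: calls also rest on retests at 20 µM and on dose response follow-up; 0% = protein and probe with vehicle and 100% = probe without protein; strong numbers were not always called active; many hits fall short of the cut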
PABP FP inh = blocks human PABP binding to poly(A) RNA; inhibition, % at 35 µM; actives 1% (n = 290,000); P11940; fluorescence polarization;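 active = 50% or more with normal probe brightness, or confirmed in later tests; inconclusive = above 50% with abnormal brightness, or retests that disagree; inactive = below 50% or failed in later tests; about a fifth of its hits are not listed in these tables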;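 note: calls also rest on retests at 20 µM and on dose response follow-up; controls were probe without protein and protein plus probe with vehicle; some compounds called inactive have numbers as strong as hits; many hits fall short of the cut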
Target sequence (P11940 whole entry, looked up): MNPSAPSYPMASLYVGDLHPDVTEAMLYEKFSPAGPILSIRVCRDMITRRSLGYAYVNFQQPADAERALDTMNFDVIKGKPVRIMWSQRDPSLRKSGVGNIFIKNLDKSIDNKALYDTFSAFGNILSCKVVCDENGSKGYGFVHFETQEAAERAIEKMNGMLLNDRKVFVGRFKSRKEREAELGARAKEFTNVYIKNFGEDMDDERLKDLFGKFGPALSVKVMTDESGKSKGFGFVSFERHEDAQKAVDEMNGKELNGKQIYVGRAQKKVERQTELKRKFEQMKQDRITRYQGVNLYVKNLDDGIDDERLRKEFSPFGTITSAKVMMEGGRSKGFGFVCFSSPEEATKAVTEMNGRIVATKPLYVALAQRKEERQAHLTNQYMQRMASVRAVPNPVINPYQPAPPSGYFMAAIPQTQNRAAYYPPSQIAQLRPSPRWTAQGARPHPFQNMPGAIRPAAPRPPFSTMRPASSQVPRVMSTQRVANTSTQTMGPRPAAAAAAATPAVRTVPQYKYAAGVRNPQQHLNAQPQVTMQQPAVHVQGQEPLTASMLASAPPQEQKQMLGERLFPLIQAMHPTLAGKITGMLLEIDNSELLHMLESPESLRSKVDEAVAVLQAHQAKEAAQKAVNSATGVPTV
Env fusion inh = HIV envelope-mediated fusion inhibition. HeLa-JRFL Env/CEM21 cell fusion, luciferase. inhibition, % at 12.3 µM. actives 1.1% (n = 360,000). AID 651610;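 active = mean replicate inhibition score of at least 50 and every replicate individually at or above 50; inconclusive = only one of the two criteria met; inactive = mean below 50 and not all replicates reaching 50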;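 note: 0% = plate neutral controls and 100% = maraviroc near 300 nM; one replicate is shown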
MT1-MMP act inh = inhibitors of human MT1-MMP activation. AID 651647. actives 0.061% (n = 360,000). HT1080 RFP-PRO-GFP cells, GFP/RFP ratio fluorescence, overnight; percent of plate control window, DMSO zero. P50281. GFP/RFP ratio change, % at 20 µM;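 active = GFP/RFP ratio change of at least 30% with cell ATP level not reduced by more than half and red fluorescence within 50% of control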; note: strong numbers were not always called active
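Assay system: RFP-PRO-GFP reporter HT1080 cells; read-out basis: GFP/RFP fluorescence ratio; benchmarks: DMSO wells and RFP-L50D-GFP cells; doses: 20 µM single dose, 1% DMSO; schedule: overnight cell settling, then overnight compound exposure, 37 °C, 5% CO2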
CSC inhib = blocks cancer stem cells; inhibition, % at 7.5 µM; actives 1.1% (n = 300,000); AID 2717; cancer stem cell-like cells viability, luminescence;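 active = mean at 75% or more and at least half the replicates too; inconclusive = mean and replicates disagree; tested in HMLE shEcad cells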;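 note: 0% = median of negative and 100% = median of positive control wells; the first replicate is given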
Rce1 inhib = yeast Ras-converting enzyme inhibition | Q03530 | yeast membranes, quenched prenylated peptide cleavage fluorescence | calls only | actives 0.27% (n = 290,000) | AID 2563;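 active = fall in fluorescence gain of 50% or more versus controls, with final raw signal at or below 3038400; inconclusive = same 50% fall but final raw signal above 3038400; inactive = fall in fluorescence gain under 50%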;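 note: plate controls were neutral control wells for no effect and wells lacking membranes for full effect; tested at 10 µM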
Target sequence (Q03530 whole entry, looked up): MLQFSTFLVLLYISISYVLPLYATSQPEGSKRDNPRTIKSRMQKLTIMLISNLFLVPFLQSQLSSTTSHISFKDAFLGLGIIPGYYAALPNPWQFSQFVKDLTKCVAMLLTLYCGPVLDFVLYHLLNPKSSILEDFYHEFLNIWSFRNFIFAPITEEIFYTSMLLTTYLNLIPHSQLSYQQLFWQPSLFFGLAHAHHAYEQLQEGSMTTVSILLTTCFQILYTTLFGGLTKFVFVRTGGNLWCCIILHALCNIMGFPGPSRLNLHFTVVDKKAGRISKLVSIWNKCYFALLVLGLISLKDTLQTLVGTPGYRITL
MT1-MMP act inh RFP = recorded beside MT1-MMP act inh, whose call it bears; RFP signal change, %; measured here: RFP expression control read;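 0 = vehicle wells; hits needed this value within 50% of zero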
* = called active by the depositor; i = inactive; ? = inconclusive; . = no result given; & = joins results of further samples.

SMILES | Yeast UUG start | eIF4H inh | PABP FP inh | Env fusion inh | MT1-MMP act inh | MT1-MMP act inh RFP | CSC inhib | Rce1 inhib
C/C(=N\Nc1c(Cl)c(Cl)nc(C(=O)O)c1Cl)c1ccc(O)cc1 | -15 | 0 | 20 | 11 | -2 | 2 | 4 | i
Cc1ccc(C(=O)O)cc1S(=O)(=O)NCC1CCCO1 (stereo unspecified) | -4 | -4 | -3 | -156 | 2 | -3 | 4 | i
O=C(NCCc1ccc(Cl)cc1)c1ccc2nc[nH]c2c1 | . | 3 | 10 | 10 | 2 | 1 | -6 | i
CN1CCN(C(=O)/C=C/c2ccc(C#N)cc2)CC1 | -12 | -7 | -8 | -1 | 4 | 2 | -8 | i
COc1cccc(-c2cc(C(=O)NC3CCCC3)no2)c1 | . | 1 | -2 | -136 | 14 | 2 | . | i
O=C(CSc1ccc(F)cc1)Nc1ccc2c(c1)C(=O)NC2=O | -20 | -1 | -5 | -3 | 1 | 1 | -5 | i
CNC(=S)N/N=C/c1c(C(=O)OC)cnn1-c1ccc(F)cc1F | -14 | 7 | 12 | -1 | 7 | -9 | -19 | i
CCOC(=O)c1ccc(NC(=O)c2nc[nH]c2C(=O)NC2CCN(C(=O)OC(C)(C)C)CC2)cc1 | -26 | -3 | 2 | 26 | -2 | -2 | 5 | i
CCOc1ccc(Br)cc1S(=O)(=O)N1CCSC1 | -7 | -3 | 1 | 14 | -4 | -4 | . | i
CC(=O)c1ccc(NC(=O)CSc2nc3nc(C)cc(C)n3n2)cc1 | -14 | -19 | -15 | -26 | -1 | 0 | 0 | i
COC(=O)[C@H](CCSC)NC(=O)Nc1ccc(OC)cc1 | -4 | -2 | 2 | . | 3 | 4 | -9 | i
C=CCOc1ccccc1/C=N/NC(=O)c1ccc(Cl)cc1Cl | -15 | 5 | -1 | -11 | 0 | -3 | -14 | i
CCCC(O)(c1ccc(Cl)cc1)C(CN1CCOCC1)c1ccccc1 (stereo unspecified) | 0 | -6 | 30 | 2 | -5 | -5 | . | i
CC(=O)NNC(=O)c1cc2sccc2s1 | . | 0 | 6 | 0 | -1 | 4 | -4 | i
CCN(C[C@H]1N[C@@](C)(C(=O)OC)[C@H]2C(=O)N(Cc3ccccc3)C(=O)[C@@H]12)C(=O)C1CCCCC1 | 11 | . | . | -20 | -1 | 3 | . | .
CCn1c(C)nc2cc(S(=O)(=O)C(F)F)ccc21 | -17 | -4 | -4 | -38 | 2 | 3 | 12 | i
c1ccc2c(c1)oc1c(Nc3ccc(CN4CCOCC4)cc3)ncnc12 | -26 | -13 | 21 | . | 14 | -13 | -14 | i
Cc1nnc(SCC(=O)N2CCN(c3cccc(Cl)c3)CC2)n1C1CC1 | -15 | . | . | . | 0 | -14 | 1 | .
Cc1noc(C)c1S(=O)(=O)N(CCc1ccccc1)Cc1ccccc1 | -7 | 4 | -1 | 9 | -3 | -5 | 14 | i
Cc1cc2nc(-c3cccc(Cl)c3)c(CC(C)(C)C)n2c(C)c1Br | -11 | . | . | 4 | -3 | -8 | . | .
O=C(NCCc1cnn(-c2ccccc2)c1)c1cc(COc2c(F)cccc2F)on1 | . | -8 | -3 | 11 | 0 | -6 | . | i
Cc1ccc(OCc2ccc(C(=O)O)o2)cc1C | -55 | 9 | 9 | -70 | -3 | -1 | -3 | i
Cc1ccc(C)c(NC(=S)NCCN(C2CCCCC2)C2CCCC2)c1 | -14 | 0 | -3 | 9 | -1 | 0 | -2 | i
Cc1ccc(NC(=O)Cc2c[nH]c3ccccc23)cc1S(=O)(=O)N1CCCCCC1 | . | 3 | 8 | 5 | 6 | 1 | 18 | i
COc1ccccc1N1CCN(C(=O)c2cccc(S(=O)(=O)N3CCCCCC3)c2)CC1 | 3 | . | . | -10 | -2 | -9 | . | .
COc1ccccc1CN(Cc1nc2ccccc2c(=O)[nH]1)C(=O)Nc1ccccc1C | 5 | -7 | 4 | . | -4 | 4 | -3 | i
O=C(Cn1nc(C(=O)O)c2ccccc2c1=O)Nc1cccc(S(=O)(=O)N2CCCCC2)c1 | -1 | . | . | 6 | 9 | -4 | 0 | .
CCOC(=O)N1CCN(C(=O)N2CCOCC2)CC1 | -18 | -8 | -4 | . | -4 | -1 | -5 | i
Cc1c(C(C)CCCO)oc(=O)c2c1Oc1c(C)c(C(C)C[C@@H](C)O)oc(=O)c1C2 (stereo partly specified) | 9 | . | . | -9 | 5 | 2 | 1 | .
Cc1ccc(CNC(=O)Nc2ccccc2)c(C)c1 | -27 | -15 | -6 | -111 | 0 | 3 | 3 | i
O=C(NCc1cccc(F)c1)Nc1nnc([C@@H]2C[C@H](O)[C@@H](CO)O2)s1 | -12 | . | . | -16 | -3 | -1 | . | .
NC(=O)N1CCN(C(=O)c2ccco2)CC1 | . | -4 | 6 | . | 6 | 1 | -9 | i
COc1ccc(C(=O)NCCc2nnc3ccc(SCC(=O)N4CCCCC4)nn23)cc1 | -12 | -7 | 7 | -7 | -2 | 1 | -16 | i
Cc1ccc(/C=N/NC(=O)c2cccc(NC(=O)c3ccccc3C)c2)o1 | -10 | -2 | 13 | 12 | -1 | 1 | -9 | .
CS(=O)(=O)c1cccc(C(=O)OCC(=O)Nc2ccc3c(c2)OCO3)c1 | -45 | . | . | -11 | 2 | 1 | . | .
Cc1ccc(-n2c(SCC(N)=O)nnc2-c2ccccn2)cc1C | -14 | -7 | 4 | . | 2 | 3 | 6 | i
CC(NC(=O)c1ccc(Cl)c(S(=O)(=O)NC2CC2)c1)c1ccco1 (stereo unspecified) | 0 | . | . | 0 | 0 | 0 | . | .
Fc1cccc(/C=N/Nc2ccc(Cl)nn2)c1 | -20 | -6 | 3 | -30 | 3 | 1 | 7 | i
CN1CCN([C@H]2CS(=O)(=O)N[C@@H]2COCc2ccccc2)CC1 | 0 | . | . | -32 | 2 | 6 | . | .
Nc1nccc(-c2nn(-c3ccc(Cl)cc3)ccc2=O)n1 | . | 6 | 0 | -2 | -2 | 3 | -5 | i
CCCCn1c(N)c(N(CCOC)C(=O)C2CCN(S(=O)(=O)c3ccc(Cl)cc3)CC2)c(=O)[nH]c1=O | -5 | -4 | 5 | -3 | 2 | 3 | 8 | i
COc1ccc(/C=C2\C(=O)N(c3c(Cl)cc(Cl)cc3Cl)N=C2NC(=O)c2cccc([N+](=O)[O-])c2)cc1 | -17 | 5 | 4 | . | 6 | -10 | -10 | .
Cc1ccccc1NC(=O)c1ccccc1NC(=O)Cc1cccc2ccccc12 | . | -2 | 1 | 26 | 1 | -2 | -16 | .
CC(C)C(c1nnnn1C1CCCC1)N1CCC(C(N)=O)CC1 (stereo unspecified) | . | -4 | 5 | 3 | -2 | -2 | -4 | i
Cn1cnc(S(=O)(=O)NC2CCN(Cc3c(F)cccc3Cl)CC2)c1 | -14 | -15 | -16 | -8 | 2 | 3 | 1 | i
COc1ccc(N2C(=S)NC3c4cc(Cl)ccc4OC2(C)C3C(=O)N(C)C)cc1 (stereo unspecified) | -24 | 5 | -18 | -29 | -4 | -6 | 6 | i
Cc1ccc(S(=O)(=O)CCC(=O)Nc2nnc(-c3cccs3)o2)cc1 | -25 | . | . | -28 | 3 | 2 | -4 | i
C=C(C)CSc1nnc2n(Cc3ccccc3)c(=O)c3c4c(sc3n12)CCC4 | -2 | -1 | -5 | . | 0 | 0 | . | i
COc1ccc(OC)c(NC2=NC3(CCCC3)N=C(N)N2)c1 | -13 | 6 | 2 | -11 | 1 | 2 | -9 | i
CC1(C)N=C(SCC(=O)Nc2ccc(Cl)cc2)C(c2ccccc2)=N1 | -22 | 3 | 9 | -26 | 0 | -2 | 24 | .
COc1cccc(CNc2nc3cc(-c4cccc(C(F)(F)F)c4)sc3c(=O)n2C)c1OC | -13 | . | . | ? | -1 | -25 | . | .
CCC1CCCCN1C(=O)c1cc(COc2ccc3ncccc3c2)on1 (stereo unspecified) | . | -7 | -2 | 7 | -10 | -31 | -4 | i
CN(C)C(=O)c1cc(C(=O)c2ccc(F)cc2F)c[nH]1 | -22 | -12 | -5 | 2 | 1 | 0 | -12 | i
Nc1[nH]n2c(=O)cc(-c3ccccc3)nc2c1N=Nc1ccccc1 | -12 | 13 | 15 | . | 16 | -3 | 92* | i
C=CCn1c(SCC(=O)NCc2ccco2)nc2sc3c(c2c1=O)CCCC3 | -13 | -1 | -7 | . | 1 | 0 | -11 | i
C#Cc1ccc(CN2CCN(CCCc3ccccc3)C(CCO)C2)cc1 (stereo unspecified) | -22 | 5 | 7 | 5 | 0 | 7 | 24 | i
ClC(Cl)(Cl)c1nc2ccccc2n2nncc12 | -16 | 7 | -9 | -305 | -18 | -14 | 49 | i
CCC(C)NC(=O)CN1C(=O)c2cccc3cccc1c23 (stereo unspecified) | -37 | 0 | 6 | -10 | 0 | 0 | -13 | i
COc1ccc(-c2noc(-c3ccccc3C(=O)NCc3ccco3)n2)cc1 | -16 | -1 | 1 | . | -1 | -4 | -4 | i
CC(C)C(=O)Nc1nnc(-c2ccco2)s1 | -8 | 5 | 7 | 3 | 1 | -1 | -13 | i

Following part.
SMILES | Yeast UUG start | eIF4H inh | PABP FP inh | Env fusion inh | MT1-MMP act inh | MT1-MMP act inh RFP | CSC inhib | Rce1 inhib
O=C(NN=C1CCCCCC1)c1cccnc1 | . | -3 | -5 | -22 | -1 | 5 | -5 | .
Cc1ccc(NC(=O)CCC(=O)N/N=C/c2ccc(O)cc2)cc1 | . | 4 | 2 | -104 | 3 | 3 | -10 | i
COc1ccc(N(CC(=O)Nc2ccc(F)cc2)S(=O)(=O)c2ccccc2[N+](=O)[O-])c(OC)c1 | . | -15 | -2 | 0 | -3 | 0 | -17 | i
O=C(CN1CCCCCC1)Nc1ccc(Cl)cc1F | -10 | 10 | 1 | 17 | 2 | 3 | 3 | i
CN(C(=O)c1ccc(COc2ccccc2Cl)o1)c1ccccc1 | 2 | 2 | -4 | 21 | 1 | -1 | 6 | i
COc1ccccc1OCC(=O)N/N=C1\CCCCc2ccccc21 | 1 | -8 | 0 | -7 | 1 | -5 | 4 | i
Fc1ccc2nc(C3CCN(Cc4nc(CC5CC5)no4)CC3)[nH]c2c1 | . | 6 | 4 | 12 | 5 | 1 | . | i
CCOC(=O)C1CCCN(C2=NC(=O)/C(=C/c3ccc(OC)c(OC)c3)S2)C1 (stereo unspecified) | 5 | 1 | -5 | 13 | 3 | 0 | -3 | i
CCC(C)(C)NC(=O)C(OC(=O)c1cc2sccc2n1C)c1ccc(OC)cc1 (stereo unspecified) | -16 | 2 | -7 | . | 10 | 1 | 1 | i
NC(=O)C1CCN(C(=O)COc2ccc3ccccc3c2Br)CC1 | -15 | -4 | -5 | 15 | 2 | 1 | -11 | i
C[C@@H]1CN([C@H](C)CO)C(=O)c2cc(Br)cnc2O[C@@H]1CN(C)C(=O)Nc1ccccc1 | -8&14 | . | . | 19 | 3 | 6 | . | .
Cc1ccc(S(=O)(=O)NCCCCCC(=O)Nc2ccccc2)cc1 | -3 | 14 | 2 | . | -1 | -3 | -5 | i
CC(=O)Nc1nnc(-c2c(-c3ccccc3Cl)noc2C)o1 | -15 | -5 | 3 | 21 | 5 | 0 | 11 | i
COc1ccc(NC(=O)N2CCC(C(=O)c3ccc(F)cc3)CC2)cc1 | -9 | -9 | -3 | -33 | -1 | -5 | -2 | i
NNC(=O)CNC(=O)c1ccc(F)cc1 | . | 7 | 10 | 15 | -3 | -2 | 6 | i
